# Screening results (PubChem)
# RecA splice inh = Mtb RecA intein splicing inhibition. inhibition, %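 (about 9 µM by stock and volumes)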. actives 0.75% (n = 290,000). cell-free RecA intein splicing, fluorescence. P9WHJ3. AID 2221; in the data active means inhibition above about 30%; inconclusive means no clear call, values can overlap the other calls;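 further: 0% = vehicle wells and 100% = reference inhibitor control wells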
# Target sequence (P9WHJ3 whole entry, looked up, canonical isoform): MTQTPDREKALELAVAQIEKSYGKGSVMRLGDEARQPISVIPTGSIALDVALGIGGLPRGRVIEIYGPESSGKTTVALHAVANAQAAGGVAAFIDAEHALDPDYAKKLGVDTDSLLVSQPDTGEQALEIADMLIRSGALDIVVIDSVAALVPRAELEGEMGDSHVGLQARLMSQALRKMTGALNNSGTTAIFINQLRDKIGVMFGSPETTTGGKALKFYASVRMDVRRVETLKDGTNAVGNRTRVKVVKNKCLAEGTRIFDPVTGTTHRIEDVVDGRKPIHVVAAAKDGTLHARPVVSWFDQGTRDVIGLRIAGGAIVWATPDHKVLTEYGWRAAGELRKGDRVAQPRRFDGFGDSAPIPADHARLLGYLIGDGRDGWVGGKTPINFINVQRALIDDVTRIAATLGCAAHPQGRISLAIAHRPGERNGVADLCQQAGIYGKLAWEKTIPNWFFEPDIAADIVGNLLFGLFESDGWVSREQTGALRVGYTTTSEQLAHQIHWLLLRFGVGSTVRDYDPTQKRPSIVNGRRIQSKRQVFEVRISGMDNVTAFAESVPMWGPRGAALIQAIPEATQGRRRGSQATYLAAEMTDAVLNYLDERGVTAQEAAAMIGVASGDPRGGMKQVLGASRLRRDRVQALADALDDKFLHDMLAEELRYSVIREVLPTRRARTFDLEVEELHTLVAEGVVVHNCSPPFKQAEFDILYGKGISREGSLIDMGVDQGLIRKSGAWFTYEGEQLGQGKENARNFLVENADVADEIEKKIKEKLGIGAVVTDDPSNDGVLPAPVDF
# Mtb bLac sens = beta-lactam sensitization of Mtb H37Rv; actives 0.27% (n = 330,000); M. tuberculosis H37Rv growth with meropenem, percent inhibition; hits of this screen are not shown here; AID 434955; inhibition, % at 25 µM;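 active means about 74% or more and at least 40 points above the plate without the antibiotic, then above 30% in a dose series; inconclusive means first-round hits that could not be retested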;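 further: growth measured after seven days incubation then overnight dye step; 0% = bacteria only wells and 100% = bacteria with antibiotic; twin plates without the antibiotic show which effects depend on it; some results filed as inactive read as strong as hits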
# Arbovirus inh = antivirals against arbovirus infection | arbovirus infection cell-based antiviral screen | inhibition, % at 10 µM | actives 0.37% (n = 200,000) | AID 1251;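 active means inhibition from about 30%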;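 further: bluetongue infection of BSR cells; cell survival read as ATP light after 72 h; 0% = infected wells without compound and 100% = uninfected wells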
# Mtb growth = M. tuberculosis H37Rv growth inhibitors, H37Rv strain (AID 1626). M. tuberculosis H37Rv growth inhibition; higher % means a stronger effect. inhibition, % at 10 µM; hits with a dose series show IC50 in µM. actives 0.95% (n = 220,000);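 active means confirmed in a dose series; inconclusive means inhibition above 80% but not taken into the dose series; inactive means below 80% or under 30% at every dose of the series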;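 further: bacteria incubated seven days before Alamar blue readout; 0% = bacteria only wells and 100% = bacteria with antibiotic wells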
# YopH inh = inhibitors of Yersinia enterocolitica YopH tyrosine phosphatase; fluorescence Ex485/Em525; inhibition, %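 (about 10 µM by stock and volumes)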; actives 0.16% (n = 140,000); AID 898;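 active means inhibition of 50% or more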;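 further: controls were vehicle for no effect and minimum signal wells for full effect; inactives centre near -20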
# Arbovirus inh repeat = also measured in Arbovirus inh; calls as there; inhibition, %; measured here: 10K subset replicate screen; many hits read low in the repeat;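 first of two repeat runs on a subset; 0% = infected and 100% = uninfected wells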
# * marks the source's active call; other numbers are inactive results; ? = inconclusive; nt = not tested or not shown. An excerpt; the hit share may differ from the screen's.
SMILES,RecA splice inh,Mtb bLac sens,Arbovirus inh,Mtb growth,YopH inh,others
O=C(CSCc1ccc(Cl)cc1)Nc1cccc(C(=O)O)c1,-0.5,7,nt,nt,nt,
COc1ccc(C(=O)Nc2c(N)nc(SCC(=O)c3ccccc3)[nH]c2=O)cc1,-4.3,1,nt,nt,nt,
CCCOC(=O)c1ccc(Oc2cn[nH]c2-c2ccc(OCC)cc2O)cc1,8.1,-2,-29,-2%,-52,
Cc1csc(=O)n1CCC(=O)OCC(=O)N(CC(C)C)c1c(N)n(Cc2ccccc2)c(=O)[nH]c1=O,1.0,-9,nt,nt,nt,
O=C(O)C1CCC(N2C(=O)c3c(Cl)c(Cl)c(Cl)c(Cl)c3C2=O)CC1 (stereo not given),8.1,2,nt,nt,nt,
COc1ccc(S(=O)(=O)N2CCCOC2CNC(=O)C(=O)NCc2ccco2)cc1C (stereo not given),-0.5,-16,-4,-1%,nt,
CCOC(=O)C1CCCN(C(=O)c2cccc(S(=O)(=O)N(C)c3c(C)n(C)n(-c4ccccc4)c3=O)c2)C1 (stereo not given),-0.3,-14,nt,nt,nt,
COc1c(Cl)cc(Cl)cc1/C=N/n1cnnc1,-0.7,-5,8,12%,-34,
CSc1ccccc1NC(=O)c1ccc(N2CC3CC(C2)c2cccc(=O)n2C3)c(NC(=O)c2cccnc2)c1 (stereo not given),-0.9,5,nt,nt,nt,
Cc1ccnc(NC(=O)CCC(=O)N(CC(=O)NCc2ccccc2)Cc2ccccc2)c1,-6.1,-11,nt,nt,nt,
CCc1c(C)nc2ncnn2c1N1CCN(S(=O)(=O)c2ccc(OC)cc2)CC1,-2.1,1,18,-1%,nt,
O=C(NCCc1ccccn1)c1n[nH]c(=O)c2ccccc12,-2.7,-17,0,-9%,-27,
COc1cc2c(cc1OC)C(Nc1ccc(S(N)(=O)=O)cc1)=NC(C)(C)C2,2.1,0,-6,-3%,-11,
COc1cc(Cl)cc(CN2CCC(CCC(=O)NC3CC3)CC2)c1OC,1.6,3,nt,nt,nt,
COc1cccc(O)c1CN1CCC(Oc2ccc(C(=O)NCc3ccccn3)cc2)CC1,1.3,0,nt,nt,nt,
C/C(=N\Nc1ccc(Cl)c(C(=O)O)c1)c1ccccn1,-3.5,2,nt,-7%,nt,
NC(=O)c1ccc(Oc2ccc3ccc(=O)oc3c2)c([N+](=O)[O-])c1,-2.0,-12,8,-14%,nt,
O=C(COC(=O)CCc1c[nH]c2ccccc12)NCc1ccccc1,2.3,8,-2,14%,-8,
CCCn1nnnc1NCc1ccc(N(C)C)cc1,-3.4,4,nt,nt,nt,
Nc1nnc(SCc2ccc([N+](=O)[O-])cc2)s1,nt,-10,-4,-5%,nt,
COc1ccccc1OCCSc1nc2ccccc2n1CCC(=O)O,-1.9,8,nt,nt,nt,
O=C(O)C(c1ccccc1)N1CCCCC1 (stereo not given),nt,-4,18,1%,nt,
CC(=O)N1CCc2cc(Br)cc(S(=O)(=O)NCc3ccc(Cl)cc3)c21,0.7,0,nt,nt,nt,
OC(CN1CCNCC1)Cn1ccc2ccccc21 (stereo not given),-0.8,-6,nt,nt,nt,
COc1ccc(Cc2nnc(SCC(=O)Nc3ccccc3C)n(N)c2=O)cc1,-2.1,-22,nt,nt,nt,

# The closing 4 compounds of the section before open the next one:
SMILES,RecA splice inh,Mtb bLac sens,Arbovirus inh,Mtb growth,YopH inh,others
O=C(O)C(c1ccccc1)N1CCCCC1 (stereo not given),nt,-4,18,1%,nt,
CC(=O)N1CCc2cc(Br)cc(S(=O)(=O)NCc3ccc(Cl)cc3)c21,0.7,0,nt,nt,nt,
OC(CN1CCNCC1)Cn1ccc2ccccc21 (stereo not given),-0.8,-6,nt,nt,nt,
COc1ccc(Cc2nnc(SCC(=O)Nc3ccccc3C)n(N)c2=O)cc1,-2.1,-22,nt,nt,nt,
O=C(CSCc1ccccc1)N1CCN(S(=O)(=O)c2cccc(F)c2)CC1,-1.8,-7,nt,nt,nt,
CCCn1c(CN(C)Cc2ccccc2)nc2c1c(=O)n(C)c(=O)n2C,0.3,-7,0,-17%,-30,
CC(C)c1nc(C(=O)N2CCc3c([nH]c4ccccc34)C2c2ccccn2)cs1 (stereo not given),4.7,-4,-4,7%,nt,
CCCOc1cccc(-c2cc(-c3n[nH]c(=S)n3CC)c3ccccc3n2)c1,14,58,-16,5%,-2,
Cn1c(=O)c2ccccc2n(CC(=O)Nc2ccc3c(c2)OCCO3)c1=O,-0.2,2,nt,nt,nt,
N#Cc1c(NCc2ccccc2)ccnc1Cl,-2.3,2,nt,nt,nt,
CCCOc1ccccc1N/C(=N\S(=O)(=O)c1ccc(C)cc1)Nc1nc(C)cc(C)n1,1.4,1,nt,-6%,-15,
CC1CCCN(C(=O)Nc2ccc(Br)cc2Cl)C1 (stereo not given),1.2,4,7,-2%,nt,
CCC1CCCCN1S(=O)(=O)c1ccc(S(=O)(=O)N2CCN(S(=O)(=O)CC)CC2)cc1 (stereo not given),-1.4,-6,4,7%,-37,
O=C1C2CCCN2C(c2cccs2)N1c1ccc(Cl)cc1 (stereo not given),-1.4,-6,13,-6%,5,
O=[N+]([O-])c1cccc2ccc(/C=C/c3ccc(C(F)(F)F)cc3)nc12,4.1,7,28,7%,-21,
CN(C)C(=O)c1ccc(NC(=O)COC(=O)/C=C/c2cccs2)cc1,-2.1,-10,nt,nt,nt,
CC1C(=O)Nc2ccc(S(=O)(=O)Nc3ccccc3Br)cc2NC1=O (stereo not given),-0.7,-5,nt,nt,nt,
Cc1c(C)n(CCc2ccccc2)c2ncnc(NN)c12,1.6,3,nt,nt,nt,
Cc1cccc(CSc2ncnc3c2cnn3Cc2ccccc2)c1,3.1,7,-10,5%,-7,
Cc1ccccc1CS(=O)(=O)CCC(=O)NCc1ccc(F)cc1Cl,1.9,0,nt,nt,nt,
Cc1cc(OC(C)C(=O)NCC2CCC(C(=O)O)CC2)c2c(C)c(C)c(=O)oc2c1 (stereo not given),-1.0,-2,nt,nt,nt,
COc1cccc(C(=O)C2CCCN(Cc3ccc4nonc4c3)C2)c1 (stereo not given),3.5,8,8,0%,nt,
CCC(C)(C)C1CCC(=NNC(=O)c2ccoc2C)CC1 (stereo not given),1.1,-4,0,nt,-11,
O=C(CNC(=O)c1ccc(Cl)cc1Cl)Nc1ccc(F)cc1,0.9,-11,nt,6%,nt,
COc1ccc(-c2noc(CCC(=O)NCc3cccnc3)n2)cc1OC,0.7,-1,2,-4%,-18,
CCOc1cccc(NC(=O)/C(C#N)=C\c2cccnc2)c1,-0.7,-2,0,-1%,nt,
COc1ccc(NC(=S)Nc2ccc(F)cc2)cc1,-1.1,-31,nt,nt,nt,
CCCc1c(C(=O)N/N=C/c2cccc(OCc3ccc(F)cc3)c2)nnn1-c1nonc1N,0.3,1,nt,nt,nt,
Cc1ccc(NC(=O)C2CCN(S(C)(=O)=O)CC2)c(C)c1,-0.7,-3,nt,nt,nt,

# The list goes on:
SMILES,RecA splice inh,Mtb bLac sens,Arbovirus inh,Mtb growth,YopH inh,others
Cc1[nH]n(-c2ccccc2)c(=O)c1N=Nc1ccc(C(N)=O)cc1,3.3,6,nt,nt,nt,
Cc1cc(C)n(C(=O)c2ccc(C)c(S(=O)(=O)N3CCCC3)c2)n1,6.1,2,-1,1%,-68,
COC(=O)CSc1nnc(CCc2nc3ccccc3[nH]2)n1C,-0.4,-7,5,-2%,-20,
CCOc1ccc(-c2[nH]ncc2-c2csc(C)n2)c(O)c1,-0.1,-1,6,2%,-31,
Cc1ccc(S(=O)(=O)N2CCN(C(=O)CN3CCCCC3)C2C(C)C)cc1 (stereo not given),1.1,-7,-3,3%,-15,
Cc1nc2c(-c3ccc(F)cc3)c(C)nn2c(C)c1CCC(=O)N1CCC(Cc2ccccc2)CC1,20,19,-39,23%,-40,
CCC1=C(OC(=O)N(CC)CC)N2C(=O)OC(=NCC3CC3)[C@]2(C)[C@H]2C1=CC[C@H]1C(=O)NC(=O)[C@H]12,0.4,-5,nt,-10%,nt,
Cc1ccc(S(=O)(=O)N2CCN(CC(=O)N/N=C\c3cccnc3)CC2)cc1,4.5,3,4,-2%,-23,
CCN(CC)S(=O)(=O)c1ccc(N2CCOCC2)c(NC(=O)C2CSC3(C)CCC(=O)N23)c1 (stereo not given),1.4,?,nt,nt,nt,
CC(=O)N1CCC(N(CCCOC(C)C)C(=O)Nc2ccc(Cl)cc2)CC1,-1.5,-2,-3,0%,-27,Arbovirus inh repeat=1
Cc1nn(-c2ccccc2)c(Cl)c1/C=N/NC(=O)c1nn(C)cc1[N+](=O)[O-],6.2,?,nt,nt,nt,
O=C(COc1ccc(S(=O)(=O)NC2CCCCC2)cc1)NC1CCCC1,-0.2,2,0,10%,nt,
O=C(COC(=O)c1ccc2c(c1)OCCO2)NCc1ccccc1,-0.6,-10,-14,4%,-48,
COC(C[C@@H](O)C[C@H](O)COCc1ccccc1)OC,0.3,nt,nt,-11%,nt,
O=C(NCc1ccc2c(c1)OCO2)C1CCN(S(=O)(=O)N2CCOCC2)CC1,0.2,-8,-1,-6%,-15,
COC(=O)c1ccc(CNC(=O)C2CCC(=O)N(Cc3cccc(F)c3)C2)cc1 (stereo not given),-3.7,-2,nt,nt,nt,
CCOC(=O)/C(C(=O)Nc1ccc(Cl)cc1Cl)=C1/NC(C)(C)Cc2ccccc21,1.7,-5,-1,5%,-24,
CC(C)=NOc1cc(NC(=O)CCl)cc([N+](=O)[O-])c1,14,89,-22,-6%,-11,
COc1ccc2c(c1)c1nc3n(c(=O)c1n2CC(=O)Nc1ccccc1)CCS3,-1.5,3,nt,nt,nt,
CC(O)c1cccc(NC(=O)Nc2cccc(NC(=O)Nc3cccc(C(C)O)c3)c2)c1 (stereo not given),6.6,2,nt,nt,nt,
CCCN(CCC)C(=O)C1CCCN1S(=O)(=O)c1cccc2nsnc12 (stereo not given),0.8,1,nt,2%,nt,
O=C(NCCc1cccc(C(F)(F)F)c1)C1CCC(=O)N(CCc2cccc(F)c2)C1 (stereo not given),-3.0,7,nt,nt,nt,
CCOC(=O)CN1C(=O)N[C@@H](CCc2ccccc2)C(C(=O)OC)=C1C,0.1,-18,nt,-10%,nt,
Cc1cccc(NC(=O)c2cccc(NC(=O)c3ccccc3)c2)n1,0.0,8,nt,nt,nt,
Nc1c(C(=O)NCc2ccccc2)sc2nc3c(cc12)C(=O)CCC3,3.4,8,1,-5%,12,

# Next records follow:
SMILES,RecA splice inh,Mtb bLac sens,Arbovirus inh,Mtb growth,YopH inh,others
CCOCCCNC(=O)CCn1nc(-c2ccc(Cl)cc2)ccc1=O,-2.5,-1,nt,nt,nt,
COc1ccccc1N(CC(=O)N(c1ccccc1)C(C)C)S(=O)(=O)c1cccs1,5.0,-10,8,6%,nt,
CCN1C(=O)[C@@H]2[C@@H](c3ccc(-c4ccc(OC)cc4)cc3)N3CCCC[C@@]3(C(=O)OC)[C@@H]2C1=O,3.4,1,nt,nt,nt,
O=C1N/C(=N/c2ccccn2)SC1Cc1ccccc1 (stereo not given),4.5,-2,2,1%,-20,Arbovirus inh repeat=-2
COc1ccc(C(=O)CCS(=O)(=O)c2ccc(C)cc2)cc1,0.7,72,nt,nt,nt,
Cc1nn(Cc2ccc(F)cc2)c2sc(C(=O)Nc3ccccc3N3CCOCC3)cc12,0.6,-8,7,13%,-20,
Cc1ccccc1NC(=O)CSc1ccc2nnc(-c3ccccn3)n2n1,0.5,1,nt,nt,nt,
O=C(O)c1cccc(Nc2cc(Cl)c3nonc3c2[N+](=O)[O-])c1,88*,-3,7,-5%,nt,
CN(C)CCN1C(=O)c2oc3ccccc3c(=O)c2C1c1ccc(F)cc1 (stereo not given),-6.3,-10,-2,0%,-26,
CC1(C)CC(=O)C2=C(C1)OC(N)=C([N+](=O)[O-])C2c1ccc(C#N)s1 (stereo not given),-1.6,95,-8,11µM*,nt,
Cc1ccc(C)c(-c2cc(C(=O)Nc3sc(C)c(C)c3C(N)=O)c3ccccc3n2)c1,-4.5,16,22,84%,-22,
CCOC(=O)c1c(C)sc2c1N(C(=O)CN1CCOCC1)c1cc(Cl)ccc1S2,6.2,-2,-24,0%,-4,
Cc1ccc(S(=O)(=O)c2nc(Nc3nccs3)sc2Cl)cc1,4.7,96,-11,-9%,-29,
CC1=NN(C(N)=S)C(=O)C1N=Nc1cccc(Cl)c1 (stereo not given),2.4,10,nt,nt,nt,
CC(C)/C=C/C(=O)N1CCCC(N2CCN(c3ccccc3F)CC2)C1 (stereo not given),2.2,4,nt,nt,nt,
COc1ccccc1CNc1ncnc2c1nnn2Cc1ccccc1,-0.1,-9,-5,9%,-58,
C/C(=N\O)c1ccn(S(=O)(=O)c2ccc(Cl)cc2)c1,2.9,-1,nt,-9%,nt,
N#C/C(=C\c1ccccc1)C(=O)N(c1ccccn1)C1CCCCC1,7.6,7,3,-3%,-15,
